Mtb growth – Mycobacterium tuberculosis H37Rv growth inhibition, putative kinase inhibitor library, confirmatory dose response (AID 2842); inhibition, % at 10 µg/mL; hits with a dose series show IC90 in µg/mL; M. tuberculosis H37Rv growth inhibition; higher % means a stronger effect; some inactives read as strong as hits; 24,000 compounds, 5.2% hits;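 active means confirmed in a dose series; inconclusive means mostly over 85% at the one dose but not retested; inactive means below 85% or not confirmed; about a fifth of its hits are not listed in these tables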;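 further: bacteria incubated one week before Alamar blue readout; 0% = bacteria only wells and 100% = bacteria with high antibiotic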
* = called active by the depositor; u = inconclusive.

molecule	Mtb growth
Cn1c(=O)[nH]c(=O)c2c1nc(SCCO)n2CCc1ccccc1	13%
Cc1ccc(-n2nc3c(c2NC(=O)c2cccc(F)c2)CS(=O)C3)c(C)c1 (stereo not given)	5%
CCOC(=O)c1nn(-c2ccc(Cl)cc2)c(=O)c2c(NC(=O)CCCc3ccccc3)scc12	2%
Nc1ncnc(NCCN2CCOCC2)c1[N+](=O)[O-]	-3%
Cc1cccc(NC(=O)CSc2nc3c([nH]c4ccccc43)c(=O)n2-c2cccc(C(F)(F)F)c2)c1	36%
Cc1cccc(Cn2c(SCCc3ccccc3)nc3c2c(=O)n(C)c(=O)n3C)c1	3%
O=C(CN1C(=O)S/C(=C\c2ccco2)C1=O)Nc1ccc(O)c(C(=O)O)c1	-17%
O=C(/C=C\c1ccc2c(c1)OCO2)Nc1nnc(-c2ccc(F)cc2)s1	-2%
O=C1CC(NS(=O)(=O)c2cccnc2)CN1c1ccc2c(c1)OCCO2 (stereo not given)	8%
CCOC(=O)c1nn(-c2ccc(Cl)cc2)c(=O)c2c(NC(=O)c3ccc(S(=O)(=O)N(CC)CC)cc3)scc12	-17%
COc1ccc(/C=C/C(=O)O)cc1S(=O)(=O)NCCCO	0%
CC(C)(C)C(=O)Nc1nnc(-c2ccc3c(c2)CCCC3)o1	4.7µg/mL*
COc1ccc(OC)c(-c2nnc(NC(=O)/C=C\c3ccc4c(c3)OCO4)s2)c1	-3%
COc1ccc2nc(-c3ccc(C)c(NS(=O)(=O)c4ccc(F)c(Cl)c4)c3)cn2n1	9%
CCOC(=O)c1sc(NC(=O)c2ccc3ccccc3c2)nc1-c1ccccc1	-6%
CCOC(=O)c1oc2ccccc2c1NC(=O)c1c(F)cccc1F	8%
O=C(CCc1n[nH]c(=O)[nH]c1=O)N/N=C/c1ccccc1I	-12%
Cc1cc(C)cc(-n2nnc3c(=O)n(Cc4cccc([N+](=O)[O-])c4)cnc32)c1	10%
Fc1ccc(Nc2nc(N3CCN(c4cccc(Cl)c4)CC3)nc3nccnc23)cc1	25%
CCOc1ccc2c(c1)c(=O)c(S(=O)(=O)c1ccc(OC)cc1)cn2Cc1ccccc1C	83%
NC(=O)CCSc1nnc(SCC(=O)c2ccccc2)s1	-11%
COc1ccccc1CCNC(=O)NC1CC(=O)N(c2ccc(OC)c(OC)c2)C1 (stereo not given)	-13%
Cc1sc2ncn(CCCCOc3ccccc3)c(=O)c2c1C	-8%
COCCNc1nc(Nc2ccc(F)cc2)c2nccnc2n1	0%
Cc1ccccc1NC(=O)c1csc2c1CCCC2	10%
O=C1CCc2cc(S(=O)(=O)Nc3ccc(F)c(F)c3)cc3c2N1CCC3	14%
O=C1NC(c2ccc(Cl)cc2)c2c1oc1ccccc1c2=O (stereo not given)	-1%
CCOC(=O)CSc1ccc2nnc(-c3cccc(F)c3)n2n1	12%
CC(=O)c1ccc(C(=O)Nc2sc3c(c2C#N)CCN(Cc2ccccc2)C3)cc1	1%
O=C(CSc1ncnc2ccccc12)NC1CCCCC1	1%
O=C(CC1C(=O)Nc2ccccc2N1C(=O)c1cccs1)Nc1ccc(Cl)c(Cl)c1 (stereo not given)	u
Cc1ccc(S(=O)(=O)c2cn(CC(=O)Nc3cc(C)ccc3C)c3ccccc3c2=O)cc1	9%
CC1C(=O)N2CCCc3cc(NC(=O)C(=O)NCc4cccnc4)cc1c32 (stereo not given)	-3%
COc1ccc2nc(Nc3nc4ccc(F)cc4s3)sc2c1	55%
CS(=O)(=O)c1ccc2nc(NC(=O)c3ccccc3Oc3ccccc3)sc2c1	88%
COc1ccc(Br)cc1-c1nc(C(N)=O)c2[nH]c(=O)n(-c3ccc(C(C)(C)C)cc3)c2n1	1%
O=C(Cn1cc(C(=O)c2ccc(Cl)cc2)c(=O)c2cc3c(cc21)OCCO3)Nc1ccc(Cl)cc1	7%
CCOC(=O)c1nn(-c2ccc(Cl)cc2)c(=O)c2c(NC(=O)c3cc(C)cc(C)c3)scc12	4%
O=C(CN1CCCC1)C12CC3CC(C1)CC(c1ccccc1)(C3)C2	-12%
CCOc1ccccc1NC(=O)c1cnc2scc(C)n2c1=O	-5%
COc1cccc2c(Nc3cccc([N+](=O)[O-])c3)cc(C)nc12	6%
COCC(=O)Nc1cc(C)c2c(=O)oc3ccccc3c2n1	-2%
Cc1ccccc1OCC(=O)Nc1nc2ccc(S(=O)(=O)N3CCCCC3)cc2s1	4%
O=C(CNc1n[nH]c(=O)[nH]c1=O)N/N=C/c1c(Cl)ccc(Cl)c1Cl	-7%
COc1ccc(NC(=O)c2oc3ccccc3c2NC(=O)CC2CCCC2)cc1OC	0%
N#Cc1c(NC(=O)CCc2ccccc2)sc2c1CCN(Cc1ccccc1)C2	-9%
NC(=O)c1ccccc1NC(=O)CCn1c(=O)oc2ccccc21	5%
Cc1ccc(-c2c3c(nc4sc(C(=O)Nc5ccccc5)c(N)c24)CCCC3)cc1	7%
COC(=O)C1CCN(C(c2ccccc2)c2sc3nc(C)nn3c2O)CC1 (stereo not given)	-11%
COc1ccc(OC)c(NC(=O)CSc2nnc(-c3cccs3)n2N)c1	5%

Continued.
molecule	Mtb growth
CN1C=C(C(N)=O)C=CC1=C1C(=O)c2ccccc2C1=O	-24%
Cc1nnc(NC(=O)CSc2nc(-c3ccco3)nc3c2c(=O)n(C)c(=O)n3C)s1	0%
CC1CCN(S(=O)(=O)c2ccc(C(=O)Nc3ccc(Br)cc3C(=O)c3ccccc3)cc2)CC1	-3%
COC(=O)c1c(NC(=O)c2ccc(Br)s2)sc2c1CC(C)(C)NC2(C)C	-3%
CCCCc1ccc(NC(=O)CSC2=NS(=O)(=O)c3ccccc3N2)cc1	-13%
COc1ccc(Cc2nnc(NC(=O)Cc3cccs3)s2)cc1	8%
O=C(CCOc1ccccc1)Nc1nnc(-c2ccc(Cl)s2)o1	14µg/mL*
COc1ccc(O)c(/C=N/NC(=O)c2ccncc2)c1	0.82µg/mL*
CCc1ccc(-c2csc3ncn(CC(=O)Nc4ccccc4)c(=O)c23)cc1	33%
CCCNc1nc2c(c(=O)n(C)c(=O)n2C)n1Cc1cccc(C)c1	-9%
CCc1nnc(NC(=O)c2ccc(-c3ccccc3)cc2)s1	5%
CCOC(=O)c1nn(-c2ccc(Cl)cc2)c(=O)c2c(NC(=O)C(CC)CC)scc12	4%
Cc1c(C)n2c3c(=O)[nH]c(=O)n(C)c3nc2n1C(C)C	1%
O=C(OCCN1C(=O)c2ccccc2C1=O)c1cccs1	57%
CNC(=O)c1ccsc1NC(=O)c1ccc(S(=O)(=O)N(C)C)cc1	-1%
Cc1noc(NS(=O)(=O)c2ccc(NC(=O)CCCOc3ccccc3)cc2)c1C	25%
CCN(CC)S(=O)(=O)c1ccc(C(=O)Nc2nnc(-c3ccc(Br)cc3)s2)cc1	8%
Cc1cc2cc(CNC(=O)Nc3ccc(Cl)cc3)ccc2[nH]1	36%
COc1ccc(S(=O)(=O)c2cn(Cc3ccccc3F)c3ccc(OC)cc3c2=O)cc1	-1%
O=C(Nc1c(C(=O)Nc2ccc3c(c2)OCCO3)oc2ccccc12)c1ccccc1	4%
Cc1ccc(Nc2nc(-c3ccc(C)cc3)c(C)s2)cc1	21%
CN1CCc2c(sc(NC(=O)c3cccs3)c2C(N)=O)C1	-2%
CCOc1ccc2ccccc2c1C1NC(=S)NC(C)=C1C(=O)OC(C)C (stereo not given)	-5%
Cc1nc(-c2cccc(NS(=O)(=O)c3ccc4ccccc4c3)c2)cs1	-14%
O=c1cc(Cc2n[nH]c(=S)n2-c2ccc(F)cc2)[nH]c(=O)[nH]1	3%

The list goes on.
smiles	Mtb growth
N#Cc1ccc(-c2csc(NC(=O)CN3C(=O)CCC3=O)n2)cc1	6%
O=C(CSc1nc2c(c(=O)n1-c1ccccc1)SCC2)NCc1ccccc1	11%
Cc1ccc(N2C(=O)C3N=NN(CC(=O)Nc4ccccc4C)C3C2=O)cc1C (stereo not given)	-12%
Cc1ccc(C)c2[nH]c(=O)c(CCNC(=O)Cc3ccc(F)cc3)cc12	0%
O=C(N/N=C\c1cccnc1)c1n[nH]c2c1CCCC2	-6%
Cn1cnnc1SCC(=O)Nc1nnc(-c2ccccc2)s1	-13%
CCOC(=O)c1nn(-c2ccc(C(F)(F)F)cc2)c(=O)c2c(NC(=O)c3ccccc3C)scc12	9%
CC1(C)OC(=O)C(=CNc2ccccc2)C(=O)O1	-12%
Cc1ccc(Nc2nc(N3CCOCC3)nc3nccnc23)cc1	2%
COc1cccc(N2CC(NC(=O)c3cccc(Br)c3)CC2=O)c1 (stereo not given)	0%
Nc1ncnc(NNC(=O)CNC(=O)c2cc(Br)ccc2Cl)c1[N+](=O)[O-]	3%
CCOc1ccccc1NC(=O)c1oc2ccccc2c1NC(=O)Cc1cccc2ccccc12	-4%

Exported field by field: part of the list above
O=C(CSc1nc2c(c(=O)n1-c1ccccc1)SCC2)NCc1ccccc1
  Mtb growth: 11%
Cc1ccc(N2C(=O)C3N=NN(CC(=O)Nc4ccccc4C)C3C2=O)cc1C (stereo not given)
  Mtb growth: -12%
Cc1ccc(C)c2[nH]c(=O)c(CCNC(=O)Cc3ccc(F)cc3)cc12
  Mtb growth: 0%
O=C(N/N=C\c1cccnc1)c1n[nH]c2c1CCCC2
  Mtb growth: -6%

More compounds follow.
smiles	Mtb growth
CC(C)N1CCc2c(sc(NC(=O)c3ccc(Br)s3)c2C(N)=O)C1	1%
COC(=O)Cn1c(N(C)Cc2ccccc2)nc2c1c(=O)n(C)c(=O)n2C	-9%
O=C(Nc1nc2c(s1)CSc1ccccc1-2)c1coc2ccccc2c1=O	-8%
Cc1ccccc1NC(=O)CSc1ccc2nnc(-c3cccc(F)c3)n2n1	-7%
CC1Cc2nc(SCC(=O)Nc3ccc(F)cc3)n(C)c(=O)c2S1 (stereo not given)	-4%
COc1ccc(C(=O)Nc2c(C(=O)Nc3ccc(OC)c(OC)c3)oc3ccccc23)cc1	-6%
Cc1ccc(NC(=O)CSc2nc3c(c(=O)n2-c2ccc(Cl)cc2)SCC3)cc1Cl	2%
O=C1CCc2cc(S(=O)(=O)NCc3ccc(F)cc3)cc3c2N1CC3	-7%
CC(=O)c1ccc(Nc2nc3c(S(=O)(=O)c4ccccc4)nnn3c3ccc(Cl)cc23)cc1	-6%
C#CCn1c(=NC(=O)CN2C(=O)CCC2=O)sc2cc3c(cc21)OCCO3	1%
CC1CCCCN1c1ncnc(N)c1[N+](=O)[O-] (stereo not given)	2%
COC(=O)CSc1nc(N)c(NC(=O)c2ccco2)c(=O)[nH]1	-4%
Cc1cc(=O)[nH]c2nnc(-c3ccc4c(c3)OCO4)n12	19%
CCCCn1c(SCC(C)=O)nc2c1c(=O)[nH]c(=O)n2C	15%
N#Cc1nc2c(-c3nc4ccc(Br)cc4c(=O)[nH]3)c(N)n(Cc3ccccc3)c2nc1C#N	-7%
CC(=O)c1sc(NC(=O)/C=C/c2c(Cl)cccc2Cl)nc1C	-8%
Nc1c(C(=O)c2ccc(F)cc2)sc2nc(-c3ccccc3)cc(-c3ccco3)c12	3%
CC(=O)Nc1ccc2nc(NC(=O)c3ccc(C)cc3C)sc2c1	15%
CCCCc1ccc(NC(=O)CSc2nc(N)c(NC(=O)c3cccs3)c(=O)[nH]2)cc1	64%
Cc1ccc2cc(CCNC(=S)NC3CCCCC3)c(=O)[nH]c2c1	40%
O=C(Nc1ccccc1)c1oc2ccccc2c1NC(=O)c1cccc2ccccc12	6%
Nc1ncnc(NCc2ccc(F)cc2)c1[N+](=O)[O-]	24%
N#C/C(=C\Nc1ccccc1)c1nc(-c2ccc3c(c2)OCO3)cs1	-2%
CCOc1ccc(C(=O)Nc2c(C(=O)Nc3ccc(OC(F)(F)F)cc3)oc3ccccc23)cc1	5%
COc1ccc2c(c1)c(=O)c(C(=O)c1ccc(F)cc1)cn2Cc1ccc(C)cc1	-7%
COc1ccc(/C=N/n2c(=S)[nH]nc(C)c2=O)cc1O	-17%
CCS(=O)(=O)c1cccc(C(=O)Nc2cc(C)on2)c1	-9%
Cc1cc(NC(=O)Cn2cnc3c(nnn3-c3ccccc3)c2=O)no1	6%
CC(C)(C)CC(=O)Nc1c(C(=O)Nc2ccc(F)c(F)c2)oc2ccccc12	-4%
COc1ccc(OC)c(-n2c(SCC(=O)Nc3nnc(C)s3)nnc2-c2c[nH]c3ccccc23)c1	-7%
COc1ccc(C2C(C#N)=C(SC)NC3=C2C(=O)CC(C)(C)C3)cc1 (stereo not given)	2%
O=C(Nc1nnc(-c2ccc(F)cc2)o1)c1cccc(Br)c1	94µg/mL*
CCOc1ccccc1C1CC(=O)NC(SCC(=O)Nc2nccs2)=C1C#N (stereo not given)	-9%
CCc1ccc(S(=O)(=O)c2cn(Cc3ccccc3F)c3ccc(OC)cc3c2=O)cc1	14%
Cc1ccc(C2NC(=O)NC(O)(C(F)(F)F)C2C(=O)c2ccccc2)o1 (stereo not given)	36%
CC(=O)N1CCc2c(sc(NC(=O)c3ccc4ccccc4c3)c2C#N)C1	13%
CCCCOC(=O)c1ccc(Nc2ncnc(N)c2[N+](=O)[O-])cc1	2%
O=C1N=C(N2CCN(c3ccccc3F)CC2)S/C1=C\c1cccnc1	24%
Cn1ncc2c(N3CCN(c4ccc([N+](=O)[O-])cc4)CC3)ncnc21	-2%
CN(C)S(=O)(=O)c1ccc(C(=O)NCc2nnc(SCC(=O)Nc3cccc(F)c3)o2)cc1	-8%
Cc1ccc(C)c(-c2nnc(NC(=O)c3ccccc3[N+](=O)[O-])o2)c1	4.9µg/mL*
O=C(Nc1ccc(N2CCCCS2(=O)=O)cc1)c1cccc([N+](=O)[O-])c1	-4%
CC(C)CCSc1nc2c(c(=O)[nH]1)C(c1cccnc1)C1=C(CC(C)(C)CC1=O)N2 (stereo not given)	4%

Only part of the results is shown. The share of hits here may be higher or lower than overall.
